Screens as filed in PubChem.
PKD1 kinase inh – inhibitors of human PKD1 kinase, biochemical, fluorescence polarization; Serine/threonine-protein kinase D1 (Homo sapiens), Q15139; PKD1 kinase fluorescence polarization assay; inhibition, %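 (about 10 µM by stock and volumes)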; 200,000 tested, 0.056% active; AID 797, 2007;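 active = inhibition of 50% or more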;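 also: controls were vehicle for no effect and a reference inhibitor for full effect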
Target sequence (Q15139 whole entry, looked up): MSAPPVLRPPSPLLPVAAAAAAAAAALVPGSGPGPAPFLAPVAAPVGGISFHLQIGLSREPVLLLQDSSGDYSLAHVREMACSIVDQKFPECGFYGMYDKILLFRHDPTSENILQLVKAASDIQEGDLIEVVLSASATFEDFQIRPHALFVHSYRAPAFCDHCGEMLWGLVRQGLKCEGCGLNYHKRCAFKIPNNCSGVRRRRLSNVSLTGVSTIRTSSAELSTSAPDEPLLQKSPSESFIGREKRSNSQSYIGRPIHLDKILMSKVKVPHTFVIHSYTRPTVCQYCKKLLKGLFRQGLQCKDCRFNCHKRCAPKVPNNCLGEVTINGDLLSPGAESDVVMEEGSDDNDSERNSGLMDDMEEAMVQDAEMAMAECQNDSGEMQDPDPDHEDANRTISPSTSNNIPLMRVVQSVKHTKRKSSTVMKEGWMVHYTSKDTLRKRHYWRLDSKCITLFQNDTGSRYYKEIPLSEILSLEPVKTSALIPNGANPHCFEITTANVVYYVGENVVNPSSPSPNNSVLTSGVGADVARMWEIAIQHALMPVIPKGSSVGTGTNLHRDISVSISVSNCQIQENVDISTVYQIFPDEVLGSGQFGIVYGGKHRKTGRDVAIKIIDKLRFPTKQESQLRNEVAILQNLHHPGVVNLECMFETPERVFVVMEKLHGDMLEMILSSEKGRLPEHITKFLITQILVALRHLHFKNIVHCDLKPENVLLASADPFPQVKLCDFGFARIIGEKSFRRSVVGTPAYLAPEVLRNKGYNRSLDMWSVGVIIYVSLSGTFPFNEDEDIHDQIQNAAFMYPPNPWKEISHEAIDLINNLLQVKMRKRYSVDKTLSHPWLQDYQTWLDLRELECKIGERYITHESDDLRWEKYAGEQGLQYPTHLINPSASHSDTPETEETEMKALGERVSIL
GALR2 ag – GALR2 receptor agonists, primary screen, cell-based | activation, %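 (tested at 5 µM)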 | Galanin receptor type 2 (Homo sapiens), O43603 | GALR2-expressing cells, agonist activation read-out | AID 803, 2007 | 140,000 tested, 0.48% active;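 active = above mean plus 3 SD of all compounds, about 5% in these data, not always enough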;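 also: 0% = vehicle buffer wells and 100% = reference agonist at full effect; tested in CHO reporter cells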
RGS16-Gao HTS – modulators of RGS16 binding to Galphao, primary screen, biochemical, human proteins, multiplexed bead flow cytometry; binding response (% of control), % at 10 µM; Regulator of G-protein signaling 16 (Homo sapiens) + Guanine nucleotide-binding protein …; AID 1441, 2008; 220,000 tested, 0.38% active; bead-based flow cytometry RGS16-Galphao binding, fluorescence; actives lie on both sides;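 active = below 25% or above 175%, edge rows of some plates excepted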;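 also: Galphao activated by GDP with aluminum fluoride before binding; 100% = wells without compound and 0% = beads without RGS; some results beyond the cut were filed as inactive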
Insulin prom inh – inhibitors of insulin promoter-driven GFP, primary screen, imaging, TRM-6 cells (human fetal islet line), eGFP reporter, cell count. reporter expression induced with tamoxifen. inhibition, % at 2 µM. AID 1273, 2008. 130,000 tested, 0.9% active;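 active = inhibition above the mean plus 3 SD, with well images judged a real hit on visual review, cut at about 60% in these data, passing the limit was not always enough; inconclusive = inhibition over the cutoff but images rejected on review; inactive = inhibition not above the cutoff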
HSV augment – enhancers of HSV replication in host cells, fold increase, host cell viability; 220,000 tested, 0.005% active; AID 1956, 2009; maximum fold increase; HSV replication augmentation in cells;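 active = peak rise of 1.5-fold or more in the series; inconclusive = self-fluorescent or not available for retest; tested in PC3 cells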;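 also: first round at 10 µM; read as green reporter fluorescence; hits show the peak of a series up to 25 µM; 1 = signal of infected wells without compound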
Insulin prom inh cell count – also measured in Insulin prom inh; calls as there; normalized cell count, %; measured here: cell count, toxicity; reference of the scale not given here;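 cells exposed to compound for 48 h; stained nuclei by imaging scaled within each plate; lower means fewer cells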
HSV augment primary fold – also measured in HSV augment; calls as there; fold increase; compound at 10 µM; measured here: primary screen fold increase 10 uM; tested in PC3 cells;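 GFP signal in the first replicate; 1 = infected wells without compound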
Numbers without * were called inactive; i = inactive; ? = inconclusive; nt = no result given.

Each structure is followed by: RGS16-Gao HTS	HSV augment primary fold	HSV augment	Insulin prom inh cell count	Insulin prom inh	PKD1 kinase inh	GALR2 ag
[1] O=C1OCCC1Sc1nnnn1-c1ccc(Cl)cc1 (stereo unspecified)
    101.0	0.96	i	nt	nt	4.3	nt
[2] CC(C)C1/C(=N/O)CC(c2ccccc2)NC1c1ccccc1 (stereo unspecified)
    100.2	0.93	i	nt	nt	nt	nt
[3] C=CCn1c(SCC(=O)c2c(C)[nH]c3ccccc23)nnc1-c1ccncc1
    97.5	0.7	i	nt	nt	-2.0	nt
[4] COc1ccc(CCNC(=O)C23CN(Cc4ccccc4)CC2C(c2ccc([N+](=O)[O-])cc2)=NO3)cc1 (stereo unspecified)
    81.7	1.15	i	90.0	-50.0	-6.1	-2.2
[5] O=c1[nH]c2ccccc2nc1C(F)(F)F
    167.3	0.99	i	nt	nt	nt	nt
[6] Cc1c(NS(=O)(=O)c2ccc(Br)s2)c(=O)n(-c2ccccc2)n1C
    101.9	0.96	i	173.3	-5.1	-3.7	0.3
[7] COc1ccc(-n2c(O)c(/C=N/NS(=O)(=O)c3ccc(C)c([N+](=O)[O-])c3)c3ccccc3c2=O)cc1OC
    99.9	nt	?	52.8	-70.6	1.6	nt
[8] CN(C1CCS(=O)(=O)C1)S(=O)(=O)c1cccc2nsnc12 (stereo unspecified)
    102.6	0.89	i	100.0	31.0	-12.1	-0.9
[9] Cc1ccc(-c2nc3ccccc3s2)cc1S(=O)(=O)N1CCCC1
    97.5	0.98	i	90.9	3.9	-11.0	-2.3
[10] CC(=O)Nc1ccc(C(=O)N(C)c2ccccc2)cc1
    99.6	1.01	i	71.7	41.9	2.1	-0.3
[11] Cc1cc(C)nc(SCC(=O)N2CCCCC2)n1
    104.6	1.02	i	nt	nt	-2.6	-1.0
[12] O=C1NC2(CCCCC2)Oc2ccccc21
    101.7	0.94	i	129.0	-7.1	0.6	-1.6
[13] Cc1c(NC(=O)CN2C(=O)C3C4C=CC(C4)C3C2=O)c(=O)n(-c2ccccc2)n1C (stereo unspecified)
    96.8	0.9	i	73.2	18.8	5.3	-1.2
[14] CCOCC(=O)Nc1sc2c(c1C(=O)OCC)CCCC2
    102.2	nt	nt	84.4	-340.0	-1.3	-3.8
[15] CC(C)(C)OC(=O)NCCCCCNC(=O)c1[nH]cnc1C(=O)N[C@@H](CCCCNC(=O)OC(C)(C)C)C(=O)OC(C)(C)C
    89.7	0.7	i	nt	nt	-6.0	nt
[16] CNc1nc(C23CC4CC(CC(C4)C2)C3)cs1
    105.0	1.15	i	nt	nt	1.2	nt
[17] O=C(CNC(=O)c1ccco1)NCC(=O)OCc1cccc(C(=O)Oc2ccccc2)c1
    98.7	0.94	i	72.8	-24.3	-4.9	1.8
[18] CCc1ccc(NC(=O)Cn2nnc(C(=O)NCc3cccs3)c2N)cc1
    100.9	0.91	i	102.5	17.6	2.4	nt
[19] O=C(c1ccc(Cl)nc1)N1CCN(S(=O)(=O)c2ccccc2)CC1
    93.9	0.98	i	nt	nt	nt	nt
[20] CCN1CCN(C(c2cccs2)C(C)NC(=O)c2ccco2)CC1 (stereo unspecified)
    97.8	1.11	i	69.9	-42.9	7.3	-3.2

Not a retest: an excerpt of the list.
Each structure is followed by: RGS16-Gao HTS	HSV augment primary fold	HSV augment	Insulin prom inh cell count	Insulin prom inh	PKD1 kinase inh	GALR2 ag
[17] O=C(CNC(=O)c1ccco1)NCC(=O)OCc1cccc(C(=O)Oc2ccccc2)c1
    98.7	0.94	i	72.8	-24.3	-4.9	1.8
[18] CCc1ccc(NC(=O)Cn2nnc(C(=O)NCc3cccs3)c2N)cc1
    100.9	0.91	i	102.5	17.6	2.4	nt
[19] O=C(c1ccc(Cl)nc1)N1CCN(S(=O)(=O)c2ccccc2)CC1
    93.9	0.98	i	nt	nt	nt	nt

Other entries
Each structure is followed by: RGS16-Gao HTS	HSV augment primary fold	HSV augment	Insulin prom inh cell count	Insulin prom inh	PKD1 kinase inh	GALR2 ag
[21] CCn1cc(/C=N\NC(=O)c2ccc(Cl)cc2)cn1
    94.7	0.98	i	79.7	-15.4	2.7	-1.7
[22] COc1ccc(C2c3c(ncn(CCN4CCOCC4)c3=N)Oc3ccc4ccccc4c32)cc1OC (stereo unspecified)
    132.7	0.55	i	133.8	-17.6	-6.6	-1.9
[23] C/C(=N\OCC(=O)Nc1nc2ccccc2s1)c1ccccc1
    111.0	1.08	i	96.0	16.7	0.3	-1.1
[24] Cc1ccc(CNc2oc(-c3ccco3)nc2C#N)cc1
    77.0	nt	nt	96.6	28.8	1.4	-2.6
[25] CC1CCC(=C(C#N)c2nc(-c3cc4ccccc4oc3=O)cs2)CC1 (stereo unspecified)
    103.2	0.98	i	nt	nt	-3.0	-2.1
[26] Cc1ccc2nc(NC(=O)Cn3nc(C)c([N+](=O)[O-])c3C)sc2c1
    101.5	0.94	i	54.6	37.0	-10.8	-0.6
[27] COC(C/C=C\[C@@H](O)COCc1ccccc1)OC
    100.2	0.94	i	nt	nt	nt	nt
[28] CCS(=O)(=O)N1CCCC(C(=O)NCc2cccc(OC)c2)C1 (stereo unspecified)
    101.8	0.95	i	119.2	-75.0	-3.6	-1.1
[29] Cc1ccc(NC(=O)Nc2ccccc2)cc1[N+](=O)[O-]
    98.8	0.82	i	63.4	13.3	-3.1	-1.1
[30] CCn1cc(C(=O)O)c(=O)c2cc(F)c(N3CCN(C(=S)Nc4ccc(OC)cc4)CC3)cc21
    106.8	0.89	i	nt	nt	nt	nt
[31] CCOc1cc(C2NC(=O)NC(c3ccccc3)=C2C(C)=O)ccc1OC(C)=O (stereo unspecified)
    99.5	1.02	i	nt	nt	-16.7	nt
[32] Cc1c(Cl)cccc1NC(=S)NCc1ccccc1
    nt	0.773	i	80.5	6.8	-5.1	-0.8
[33] CCOc1ccc2nc3c(cc2c1)CN(CCCO)C(=NCCOC)S3
    -10.3*	0.95	i	148.7	-25.0	-0.3	1.4
[34] Cc1cc2nccc(-c3cccnc3)n2n1
    85.0	0.76	i	94.9	45.5	-4.5	nt
[35] C/C=C/C=C/C(=O)OCC(=O)Nc1ccc(Cl)cc1
    101.8	1.01	i	nt	nt	9.1	nt
[36] O=C(N/N=C/c1ccc(Cl)cc1)c1cc2c(s1)-c1ccccc1CC2
    101.7	0.68	i	146.6	46.7	-18.1	-1.1
[37] COc1ccc(NC(=S)Nc2ccc3nc(C)c(C)nc3c2)cc1
    99.0	0.71	i	nt	nt	-5.8	-2.1
[38] CCOc1ccc(N(CC(=O)N2CCC(Cc3ccccc3)CC2)S(C)(=O)=O)cc1
    105.0	0.96	i	116.7	11.1	-7.8	nt
[39] O=C(CCC(=O)c1cccs1)NCc1ccccc1
    111.8	0.873	i	170.0	38.1	-2.3	-1.2
[40] CC(C(=O)NCc1ccccn1)c1ccc([N+](=O)[O-])cc1 (stereo unspecified)
    95.5	1.25	i	82.0	64.7	4.5	nt
[41] Cc1nnc(SCC(=O)Nc2sc3c(c2C(N)=O)CCCC3)[nH]c1=O
    103.5	1.07	i	72.0	20.9	7.3	-2.1
[42] CCC(=O)O[C@]1(C(=O)CCl)[C@@H](C)C[C@H]2[C@@H]3CCC4=CC(=O)C=C[C@]4(C)[C@@]3(F)[C@@H](O)C[C@@]21C
    96.7	0.99	i	64.5	-45.5	-17.9	1.5
[43] CCCn1c(SCC(=O)c2ccc3c(c2)OCCO3)nnc1-c1ccco1
    97.9	0.877	i	83.0	-16.1	2.5	-1.0
[44] CC1CCCN(C(=O)C2CCN(CC(C)c3ccccc3)CC2)C1 (stereo unspecified)
    110.6	0.96	i	150.7	57.9	-3.8	-0.6
[45] COc1ccccc1C(=O)Nc1ccc(S(=O)(=O)Nc2cc(C)nc(C)n2)cc1
    116.0	0.91	i	51.4	-8.6	-2.0	-4.3
[46] CCN(CC)CCCN1C(=O)c2oc3ccccc3c(=O)c2C1c1cccc(OC)c1OC (stereo unspecified)
    105.6	0.67	i	73.3	14.3	7.5	-1.5
[47] Cc1cccc2cc3c(N)c(C(=O)N4CCOCC4)sc3nc12
    104.6	0.81	i	15.6	-21.2	-10.4	-1.2
[48] Cc1ccc(C=Nc2ccccc2C(N)=O)s1
    101.1	0.78	i	nt	nt	4.6	-0.2
[49] Cc1cccc(N(C(=O)c2ccc(Cl)cc2)C2CS(=O)(=O)CC2OC(=O)c2ccc(Cl)cc2)c1 (stereo unspecified)
    104.2	0.75	i	nt	nt	-0.2	-0.4
[50] O=C1CC(N2CCOCC2)C(=O)N1c1ccc(Cl)cc1 (stereo unspecified)
    92.8	1.16	i	nt	nt	nt	nt
[51] COc1cc(/C=N/Nc2ccc(C(F)(F)F)cn2)ccc1O
    110.7	0.95	i	157.7	36.4	-2.8	nt
[52] Cc1ccc2cccnc2c1NC(=S)NC(=O)c1ccccc1
    99.3	0.76	i	nt	nt	11.2	-2.6
[53] COc1cc(OC)nc(NC(C)=O)n1
    100.9	0.75	i	57.1	-14.7	-3.0	-2.6
[54] CC1=C(C)CC(C(=O)NNC(=O)c2ccccc2)C(C(=O)O)C1 (stereo unspecified)
    99.5	0.8	i	114.7	25.0	1.7	-2.3
[55] Cc1ccc(C)c(NC(=S)N/N=C/C(C)c2ccccc2)c1 (stereo unspecified)
    100.3	0.88	i	75.2	11.8	-4.2	nt
[56] O=C(c1ccc(-c2ccc([N+](=O)[O-])cc2)o1)N1CCCCC1
    108.7	0.93	i	113.5	6.9	-3.5	-1.3
[57] CCOC(=O)C1CCCN(C(=O)/C=C/c2cc(OC)c(OC)c(OC)c2)C1 (stereo unspecified)
    102.8	1.09	i	71.9	-23.8	-0.9	nt
[58] Cc1ccc(SCc2nc3ccccc3n2CC(=O)Nc2ccccc2)cc1
    104.5	1.21	i	101.2	27.6	-0.1	0.1
[59] Cc1cc(O)ccc1N/C=C1\CCCC1=O
    139.6	1.09	i	110.0	31.4	-1.7	0.6
[60] CN1C=CC2=C(C#N)C(N)C(C#N)(C#N)C(c3ccccc3)C2C1 (stereo unspecified)
    93.3	nt	nt	68.2	-127.3	2.7	2.8
[61] CCOC(=O)c1c(NC(=O)CS(=O)(=O)c2cn(CC)c3ccccc23)sc2c1CCCC2
    nt	0.78	i	99.2	-61.9	4.9	-0.4
[62] CCN1C(=O)[C@H]2[C@H]3[C@H](O)[C@H](O)C/C(=N\OC[C@@H](C)[C@H](OCc4ccccc4)C(C)C)[C@@H]3CC[C@H]2C1=O
    116.3	nt	nt	110.8	30.0	2.4	-2.0
[63] CC1CCCC(C)N1C(=O)c1cc2ncc(CCCl)cn2n1 (stereo unspecified)
    106.9	0.99	i	156.9	0.0	-0.7	-1.6
[64] COC(=O)C1=C(O)CSC1=Nc1ccccc1
    99.1	0.98	i	15.8	-5.6	4.4	-2.6
[65] CCOc1ccc(NC(=O)CN(C)S(=O)(=O)c2cnc[nH]2)cc1
    102.3	0.93	i	90.8	-13.3	1.1	nt
[66] COc1cc(C(=O)NCCC(=O)NC(C)C)cc(OC)c1OC
    109.8	1.02	i	48.3	33.3	-0.8	nt
[67] Cc1cccc(N2CCN(S(=O)(=O)c3ccc4c(c3)CCN4C(=O)CCC(=O)O)CC2C)c1 (stereo unspecified)
    103.5	0.94	i	nt	nt	-7.8	-0.5
[68] O=C(NCCCc1ccccc1)C1CC(=O)N(c2ccc3c(c2)OCCO3)C1 (stereo unspecified)
    102.1	0.82	i	127.1	-31.0	-5.1	-2.6
[69] CCCn1nc(NC(=O)c2ccco2)c2cc3ccccc3nc21
    99.9	1.02	i	90.1	63.2	-4.7	nt
